StopGo reporter: lowers the luciferase signal of an FMDV 2A StopGo reporter; human cells with a luciferase reporter of 2A StopGo recoding; control for the full effect not named in the record; Potency, µM (top dose mostly 57.9 µM), for the others: at the highest dose signal change, negative = less light; 410,000 tested, 1.2% active; active = well fitted falling curve with a large enough effect; inconclusive = small, poorly fitted or top-dose-only effect; inactive = no such curve, though single readings can be large or run the other way; tested in HEK293T cells; further: on the % scale 0 is the no-effect control and ±100 the full control effect; nearly all actives have a fitted effect of over 45% in size; luciferase light after 4 h
SARS PLP yeast: inhibitors of SARS-CoV papain-like protease in yeast; 330,000 tested, 0.19% active; Potency, µM (highest dose often 32.9 µM), inactives show at the highest dose activity, positive = growth rescue; S. cerevisiae expressing SARS-CoV PLpro, growth rescue; control for the full effect not named in the record; AID 485353; active means well fitted rising curve with a large enough effect; inconclusive means small, poorly fitted or top-dose-only effect; inactive means no such curve, though single readings can be large or run the other way; further: 0% is about no effect; nearly all actives have a fitted effect of over 55% in size; growth read by luminescence after 48 h
Lassa entry inh: inhibitors of Lassa virus binding or cell entry | Lassa virus pseudotype entry inhibition, cell reporter; control for the full effect not named in the record | Potency, µM (doses to about 37.9 µM), for the others: at the highest dose activity change, negative = inhibition, most hits filed as inhibitors | 300,000 tested, 1.2% active | AID 540256; active means well fitted inhibition curve with a large enough effect; inconclusive means small, poorly fitted or top-dose-only effect, or effect the other way; inactive means flat fitted curve, though single readings scatter; tested in HEK293 cells; further: on the % scale 0 is the no-effect control and ±100 the full control effect; nearly all actives have a fitted effect of over 50% in size; luciferase read-out
NS1 inh: influenza NS1 inhibition; AID 2326; 270,000 tested, 0.4% active; S. cerevisiae slowed by influenza A NS1, growth recovery by OD600; Potency, µM (top dose mostly 46.1 µM), for the others: top-dose activity, positive = more growth; active means well fitted rising curve with a large enough effect; inconclusive means small, poorly fitted or top-dose-only effect; inactive means no such curve, though single readings can be large or run the other way; further: nearly all actives have a fitted effect of over 50% in size
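A cell-based growth assay was used: compounds that relieve NS1-induced slow growth of budding yeast raise OD600. Assay medium was yeast nitrogen base with ammonium sulphate and -URA supplement, pH 6.0, with 2% galactose.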
Cruzain inh noDet: inhibitors of Trypanosoma cruzi cruzain without detergent | P25779 | purified cruzain, Z-FR-AMC fluorescence, no detergent | Potency, µM, without a hit: max response, negative = inhibition, most hits filed as inhibitors | 200,000 tested, 2.3% active;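 further: plate controls were enzyme without inhibitor for no effect and buffer without enzyme for full effect; nearly all actives have a fitted effect of over 40% in size; top concentration of the series not given in the record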
Target sequence (P25779 123-467 limits assumed): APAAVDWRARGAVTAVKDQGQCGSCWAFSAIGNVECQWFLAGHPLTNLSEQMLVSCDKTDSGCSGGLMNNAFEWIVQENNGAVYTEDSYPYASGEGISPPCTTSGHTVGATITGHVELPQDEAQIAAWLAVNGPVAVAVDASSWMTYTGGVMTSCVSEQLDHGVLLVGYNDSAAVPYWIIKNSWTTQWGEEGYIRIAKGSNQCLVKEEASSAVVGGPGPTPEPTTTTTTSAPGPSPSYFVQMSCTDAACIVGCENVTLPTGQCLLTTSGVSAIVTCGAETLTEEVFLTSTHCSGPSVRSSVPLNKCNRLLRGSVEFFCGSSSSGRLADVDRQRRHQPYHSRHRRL
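Detergent-free condition (0.00005% Triton X-100) in acetate buffer pH 5.5 with DTT. 1.5 nM enzyme and compound were pre-mixed 15 min, then 2 uM Z-FR-AMC substrate added; reaction progress from fluorescence change between first and third reads (60 s).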
RE007 growth inh: less growth of the S. pombe RE007 Vpr strain; 360,000 tested, 0.21% active; S. pombe RE007 Vpr strain, BacTiter-Glo ATP luminescence, 24 h; control for the full effect not named in the record; Potency, µM (highest dose often 92.2 µM), inactives show top-dose activity change, negative = less growth; active = well fitted falling curve with a large enough effect; inconclusive = small, poorly fitted or top-dose-only effect; inactive = no such curve, though single readings can be large or run the other way;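 further: on the % scale 0 is the no-effect control and ±100 the full control effect; nearly all actives have a fitted effect of over 50% in size; the assay follows cell death caused by Vpr and the record does not say whether a fall means rescue or toxicity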
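Fission yeast RE007 carrying one integrated HIV-1 vpr copy, seeded at OD 0.01 in PMG+AL medium with 23 nL pinned compound. Grown 24 h at 30 degrees; viability read by BacTiter-Glo luminescence after 5 min.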
Cruzain Triton: cruzain (T. cruzi) inhibition with detergent. P25779. purified cruzain, Z-FR-AMC fluorescence, 0.01% Triton. Potency, µM, inactives show max response, negative = inhibition, actives largely listed as inhibitors. 200,000 tested, 0.43% active. AID 1478;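 further: plate controls were neutral wells for no effect and buffer without enzyme for full effect; nearly all actives have a fitted effect of over 40% in size; top concentration of the series not given in the record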
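Z-FR-AMC hydrolysis (2 uM substrate) by cruzain (1.5 nM) monitored kinetically at ex 360/em 450 nm after 15 min room-temperature compound exposure; 0.01% Triton X-100, pH 5.5, 5 mM DTT.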
MARV entry inh: Marburg virus entry inhibition; AID 540276; 300,000 tested, 1.8% active; Potency, µM (top dose mostly 37.8 µM), for the others: at the top dose activity change, negative = inhibition, most hits filed as inhibitors; Marburg virus pseudotyped entry inhibition, cell reporter; control for the full effect not named in the record; about a third of the inactives were read at about 46 µM; active = well fitted inhibition curve with a large enough effect; inconclusive = small, poorly fitted or top-dose-only effect, or effect the other way; inactive = flat fitted curve, though single readings scatter; tested in HEK293 cells; about a fifth of its hits are not listed in these tables; further: on the % scale 0 is the no-effect control and ±100 the full control effect; luciferase read-out
* hit, by the source's call; ? = inconclusive; . = no result given; & = joins results of further samples; [ ] = another dose, or the depositor's remark. Unless noted, the call rests on the fitted dose curve; in most records, active means well fitted curve in the direction sought with a large enough effect; inconclusive means small, poorly fitted or top-dose-only effect, or another doubt; inactive means no such curve, though single readings can be large; an effect the other way counts as inactive or inconclusive. Potency means the concentration at half of the fitted maximal effect.

Results follow in this order: MARV entry inh	RE007 growth inh	Cruzain Triton	SARS PLP yeast	StopGo reporter	NS1 inh	Cruzain inh noDet	Lassa entry inh
- CCOCCCn1cnc2c(c1=O)c1nc3ccccc3nc1n2-c1ccc(C)cc1
  -6.3%	10.8%	2.0%	1.0%	0.9%	-6.1%	?	13.8%
- Oc1ccccc1OCC(O)c1ccccc1 (stereo not given)
  -3.8%[46.1 µM]	-13.0%	.	0.0%	45.0%[activator]	10.1%	.	-6.8%
- CN1CCN(c2ccc(NC(=O)c3ccc(-c4cccc([N+](=O)[O-])c4)o3)cc2)CC1
  -7.1%[46.1 µM]	-3.8%	.	-0.3%	-8.2%	6.2%	.	0.4%
- CCOC(=O)CSc1nnc(CNC(=O)c2ccco2)n1C
  8.0%	0.4%	-0.5%	0.6%	13.1%	-3.5%	-4.1%	35.8%[14.3 µM]
- Cc1ccc(-n2cccc2/C=C2/NC(=O)N(CC(=O)Nc3cccc(C)c3)C2=O)cc1
  2.1%	3.0%	-3.9%	23.2%	-4.5%	?	5.01µM*	3.1%
- CCC(=O)N1c2ccccc2C(N(C(C)=O)c2ccccc2)CC1C (stereo not given)
  -17.5%	-1.4%	3.0%	25.1%	34.7%[activator]	3.5%	7.8%	-6.1%
- O=C1CN(S(=O)(=O)c2ccccc2)c2ccccc2N1
  ?	-3.2%	.	0.1%	-14.3%	-1.6%	.	18.7%[46.1 µM]
- COCCCN1C(=O)CS/C1=N\S(=O)(=O)c1ccccc1
  .	0.8%	.	5.0%	-10.4%	-2.1%	.	.
- Cc1ccc(CNC(=O)CS(=O)(=O)Cc2nc(-c3ccccc3C)oc2C)cc1
  13.3%[46.1 µM]	.	-1.5%	.	-9.7%	.	9.9%	-20.9%[46.1 µM]
- Cc1ccc(-n2ncc3c(SCC(N)=O)ncnc32)cc1C
  -3.0%	5.8%	.	2.7%	50.2%[activator]	15.0%	.	-3.8%
- CN(C(=O)CSc1nc2ccccc2o1)C1CCS(=O)(=O)C1 (stereo not given)
  23.7%	11.3%	.	-5.7%	44.5%[activator]	.	.	-7.0%
- CC(C)c1ccc2oc(-c3ccc(N)cc3)nc2c1
  ?	39.8µM*	-15.2%	0.6%	-51.1%	22.8%	12.5%	?
- O=C(Cn1c(=O)ccc2cc(S(=O)(=O)N3CCCC3)ccc21)NCc1ccc(Cl)cc1
  .	.	-2.1%	.	-10.0%	.	-11.6%	?
- CCOC(=O)c1cc(-c2ccccc2)sc1NC(=O)C(C)OC(=O)c1cccnc1OCC (stereo not given)
  ?	3.1%	-5.1%	15.4%	-16.3%	0.8%	3.6%	-21.1%
- Cc1cccn2c(=O)c3cc(C(=O)NCCN4CCOCC4)n(Cc4ccccc4)c3nc12
  .	.	-1.9%	2.2%	.	-3.1%	2.6%	.
- O=C(C1CCN(c2nnc(N3CCCC3=O)s2)CC1)N1CCN(Cc2ccc3c(c2)OCO3)CC1
  ?	7.4%	-15.3%	1.0%	?	-8.9%	9.0%	2.9%
- O=C(Nc1cccc(C(=O)N2CCCCC2)c1)c1ccc(Cl)cc1
  .	-4.0%	.	-6.9%	-22.8%	-0.9%	.	.
- C=CCn1c(SCc2c(F)c(F)c(F)c(F)c2F)nc(O)cc1=O
  -6.7%&-6.7%	-9.9%	-4.9%	-3.3%	0.0%	29.9%	-26.2%	7.5%
- CC(C)CC(c1nnnn1Cc1cccs1)N1CCN(c2nc3ccccc3s2)CC1 (stereo not given)
  ?	-6.9%	-4.9%	-20.3%	?	7.1%	31.6µM*	?
- O=C(CSc1nc2ccccc2[nH]1)N/N=C/C=C/c1ccccc1[N+](=O)[O-]
  ?	-20.0%	-4.8%	11.8%	-16.9%	6.3%	-2.4%	2.0%

An excerpt of these results, comma-delimited.
structure,MARV entry inh,RE007 growth inh,Cruzain Triton,SARS PLP yeast,StopGo reporter,NS1 inh,Cruzain inh noDet,Lassa entry inh
CCOC(=O)CSc1nnc(CNC(=O)c2ccco2)n1C,8.0%,0.4%,-0.5%,0.6%,13.1%,-3.5%,-4.1%,35.8%[14.3 µM]
Cc1ccc(-n2cccc2/C=C2/NC(=O)N(CC(=O)Nc3cccc(C)c3)C2=O)cc1,2.1%,3.0%,-3.9%,23.2%,-4.5%,?,5.01µM*,3.1%
CCC(=O)N1c2ccccc2C(N(C(C)=O)c2ccccc2)CC1C (stereo not given),-17.5%,-1.4%,3.0%,25.1%,34.7%[activator],3.5%,7.8%,-6.1%
O=C1CN(S(=O)(=O)c2ccccc2)c2ccccc2N1,?,-3.2%,.,0.1%,-14.3%,-1.6%,.,18.7%[46.1 µM]
COCCCN1C(=O)CS/C1=N\S(=O)(=O)c1ccccc1,.,0.8%,.,5.0%,-10.4%,-2.1%,.,.

Further compounds.
Results follow in this order: MARV entry inh	RE007 growth inh	Cruzain Triton	SARS PLP yeast	StopGo reporter	NS1 inh	Cruzain inh noDet	Lassa entry inh
- CCOC(=O)c1cc(NC(=O)c2ccoc2C)cc(C(=O)OCC)c1
  -12.3%	1.2%	0.7%	-17.5%	7.3%	-31.0%	?	6.9%
- CCN(CC)c1ccc(C=Nc2ccc(C#N)cc2)c(O)c1
  14.3%	-17.2%	-11.3%	13.7%	-23.6%	-5.0%	2.2%	2.0%
- CS(=O)(=O)N(Cc1ccccc1F)c1ccccc1
  -2.0%[46.1 µM]	32.7%	3.4%	-0.8%	6.7%	16.3%	-0.2%	-5.7%
- Cc1ccccc1C(=O)NNC(=O)C(=O)N1CCCCC1
  -5.6%	-13.7%	-0.7%	-5.8%	6.4%	2.5%	11.1%	3.5%
- CCOC(=O)Cc1csc(NC(=S)NC(=O)c2ccc(C)cc2)n1
  .	-21.7%	-8.7%	-21.5%	-0.9%	4.7%	12.8%	.
- O=C1OCC2=C1C(c1ccc3c(c1)OCO3)Sc1ccccc1N2 (stereo not given)
  ?	20.7%	-8.9%	-0.7%	-29.3%	-28.1%	-4.7%	-12.4%
- COc1ccc(Cc2nnc(Nc3ccc4c(c3)OCCO4)[nH]c2=O)cc1
  ?	1.0%	.	3.6%	2.9%	.	.	-31.3%
- Cc1cccc(C)c1NC(=O)NCCc1c[nH]c2ccccc12
  22.3%[46.1 µM]	.	-4.6%	.	-5.4%	.	18.6%	1.7%[46.1 µM]
- CCOC(=O)CN1c2ccccc2NC(=O)CC1C (stereo not given)
  .	10.2%	3.5%	-2.2%	-6.8%	1.4%	5.8%	.
- CCOC(=O)c1ccc(Nc2cnc3ccccc3n2)cc1
  ?	1.3%	.	0.4%	26.6%	-3.1%	.	15.5%
- O=C(NC1CC1)c1cc(-c2ccccn2)nc2ccccc12
  ?	0.1%	-3.8%	3.0%	-17.7%	-3.7%	3.8%	-4.6%
- O=C1c2cccc(OCC(=O)N3CCCc4ccccc43)c2CCN1Cc1ccc(Br)cc1
  ?	27.7%	3.4%	-9.9%	?	1.8%	?	20.6µM*
- CCCN1CCN(CCCNC(=O)C2CCCN(c3nc4ccc(OCC)cc4s3)C2)CC1 (stereo not given)
  -1.6%	-3.7%	6.1%	6.8%	-4.7%	-0.8%	-13.2%	10.6%
- Cc1nn2c(C(F)(F)F)cc(-c3ccc(Cl)cc3)nc2c1C(=O)N1CCOCC1
  ?	-11.0%	-2.6%	5.8%	?	4.5%	24.0%	-13.3%
- Cc1ccc2c(c1)N(C(=O)CCC(=O)N1CCCCC1)CCO2
  .	1.2%	.	-5.4%	1.6%	-8.9%	.	.
- Cc1nc2scc(C)n2c(=O)c1S(=O)(=O)Nc1cccc(C(F)(F)F)c1
  3.2%[46.1 µM]	.	-13.4%	.	33.5%[activator]	.	-2.7%	-6.4%[46.1 µM]
- O=C(CN1CCCCCC1)Nc1ccc([N+](=O)[O-])cc1Br
  2.6%[46.1 µM]	-1.6%	.	2.5%	-14.0%	2.5%	.	-7.9%[46.1 µM]
- OCCN1CCOCCN(CCO)CCOCC1
  ?	-3.2%	1.7%	12.2%	-17.9%	-5.3%	3.5%	20.5%
- Cc1ccn2c(=O)nc(SCC(=O)NCCc3ccccc3)nc2c1
  6.3%	1.3%	.	1.9%	-12.1%	.	.	6.6%
- COc1ccc(N2CCN(C(=O)NCc3noc4ccccc34)CC2)cc1
  .	.	-0.8%	.	-8.9%	.	11.2%	-4.0%[46.1 µM]

A few values from above:
Cc1nc2scc(C)n2c(=O)c1S(=O)(=O)Nc1cccc(C(F)(F)F)c1 – Cruzain inh noDet = -2.7%
CCC(=O)N1c2ccccc2C(N(C(C)=O)c2ccccc2)CC1C (stereo not given) – MARV entry inh = -17.5%

The list goes on.
Results follow in this order: MARV entry inh	RE007 growth inh	Cruzain Triton	SARS PLP yeast	StopGo reporter	NS1 inh	Cruzain inh noDet	Lassa entry inh
- CC(=O)CSc1nnc(-c2ccc(S(=O)(=O)N3CCC(C)CC3)cc2)o1
  21.7%	2.7%	.	.	10.1%	.	.	15.3%
- CCCC(=O)Oc1ccc(C2NC(=O)c3ccccc3O2)cc1 (stereo not given)
  0.0%	-8.4%	.	-7.5%	-19.0%	7.8%	.	?
- C=CCNC(=S)Nc1ccccc1
  3.1%	-2.5%	4.6%	4.7%	.	4.1%	8.1%	13.1%
- COc1ccc(NC(=S)N2CCN(C(=O)C3CCCO3)CC2)cc1 (stereo not given)
  -4.8%	6.5%	.	-4.9%	-3.6%	2.9%	.	-3.0%
- NNc1nc(-c2ccccc2)cc(-c2ccccc2O)n1
  ?	-3.1%	-5.3%	3.6%	14.7%	-18.6%	15.8µM*	-16.9%
- Cc1scc(C(=O)N2CCN(c3ccc(Cl)cc3)CC2)c1C
  ?	-11.1%	.	0.3%	-0.1%	-49.9%	.	-1.6%
- CCN(CC)C(=O)COC(=O)c1cc(-c2ccc(OC)cc2)nc2ccccc12
  ?	-2.3%	-14.2%	-6.4%	.	-9.0%	?	?
- Cc1ccc(C)c(S(=O)(=O)N2CCN(C(=O)CNC(=O)c3ccc4ccccc4c3)CC2)c1
  ?	10.3%	.	-5.9%	?	.	.	?

Assay outcomes as filed in PubChem.
